EP2 antag = EP2 receptor (human) inhibition. inhibition, % at 25 µM. 0.52% of 260,000 active. C6 glioma cells expressing human EP2, cAMP TR-FRET; cells stimulated with saturating PGE2. P43116;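 active = percent inhibition above 40 after rounding to a whole number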;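 also: rat C6 glioma host cells with rolipram phosphodiesterase inhibitor present; the protocol text gives 20 µM as final concentration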
PERK inh = inhibitors of human PERK kinase | CHO PERK-DD fusion, SEAP luminescence translation reporter | inhibition, % at 5.6 µM | 0.17% of 220,000 active;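 active = inhibition above the mean inhibition of all tested compounds plus 3 SD, set separately per screening campaign, cut at about 2.9% in these data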;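 also: PERK kinase domain activated by AP20187 dimerizer at 100 nM; 0% = DMSO with dimerizer and 100% = rapamycin at 8.4 µM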
Hck Nef HTS = human Hck-Nef kinase inhibition; inhibition, % at 20 µM; P08631; Recombinant Hck-YEEI plus Nef, Z-Lyte FRET kinase assay; 0.68% of 220,000 active;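 active = Hck-Nef kinase inhibition above about 50%, limit read from the data; inactive = inhibition below that limit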;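 also: 0% = DMSO with Hck plus Nef and 100% = Hck alone without Nef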
RBBP9 inh = inhibitors of human serine hydrolase RBBP9; inhibition, % at 7.94 µM; AID 1515; O75884; recombinant RBBP9, FP-Rh probe fluorescence polarization; 0.2% of 220,000 active;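 active = inhibition above the campaign mean of all tested compounds plus 3 SD, cut at about 14% in these data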;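 also: plate controls were DMSO wells with RBBP9 for no effect and wells lacking RBBP9 protein for full effect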
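System: RBBP9 protein / Quantity: 2.5 µM RBBP9 dispensing solution, before mixing / Also added: Serine-hydrolase probe FP-Rh, 375 nM pre-mixing / Dosing: 7.94 µM single dose, 0.794% DMSO / Timing: enzyme-compound preincubation 30 min, then probe labeling 45 min, 25 °C / Signal: FP readout at 525/598 nm / Controls: DMSO-treated enzyme wells and wells lacking RBBP9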
L929 necroptosis = blocks zVAD induced death of L929 cells | AID 1377 | 0.38% of 220,000 active | viability rescue, % at 10 µM | L929 zVAD necroptosis rescue, ATP luminescence, 24 h; with zVAD 60 µM;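 active = activation, scaled between plate controls, above about 75%, limit read from the data; inactive = activation under that limit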;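 also: 0% = zVAD with DMSO and 100% = DMSO alone without zVAD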
TNF death inh = blocks TNF-alpha induced death of Jurkat FADD-/- cells | activation (protection from cell death), % at 10 µM | Jurkat FADD-/- TNF necroptosis rescue, ATP luminescence, 24 h; 0 = TNF only, 100 = no-TNF cells | 0.068% of 220,000 active;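 active = activation, meaning protection from cell death, of at least 50% relative to plate controls; inactive = activation below 50%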;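 also: necroptosis triggered by 40 ng/mL TNF-alpha added together with compound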
EP2 modulator = modulates human prostaglandin E2 receptor EP2 signaling; P43116; EP2-expressing cells, cAMP HTRF FRET, PGE2 co-stimulation; induction, % at 25 µM; 0.83% of 260,000 active; AID 940;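 active = compounds whose cAMP rise, as percent of the full-agonist control response, exceeds 60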;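 also: rat C6 glioma line stably carrying human EP2 under a CMV promoter; the protocol text gives 20 µM as final concentration; 100% = response of wells given 1 µM PGE2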
* marks the source's active call; other numbers are inactive results; / = no result given; & = joins results of further samples. Some of the compounds tested. The share of hits here may be higher or lower than overall.

[1] O=C(Nc1ccc(Cl)cc1C(=O)c1ccccc1Cl)c1ccco1
[2] CNC(C)C(O)c1ccccc1 (configuration not stated)
[3] C(=NC12CN3CN(CN(C3)C1)C2)c1cccnc1
[4] CCOC(C(=O)OCCCN(CC)CC)(c1ccccc1)c1ccccc1
[5] O=[N+]([O-])c1ccc(C2[C@H]3C(c4ccccc4)=NC4(CCCCC4)N23)cc1 (some centres not stated)
[6] CCOC(=O)c1c(NC(=O)c2c(N)n(CCCOC)c3nc4ccccc4nc23)sc2c1CCCC2
[7] CC(C)(C)c1ccc(S(=O)(=O)N2CC3CC(C2)c2cccc(=O)n2C3)cc1 (configuration not stated)
[8] CC(NCc1ccc(Cl)cc1)C(O)c1ccccc1 (configuration not stated)

| Assay by compound | 1 | 2 | 3 | 4 | 5 | 6 | 7 | 8 |
| --- | --- | --- | --- | --- | --- | --- | --- | --- |
| EP2 antag | 8 | 7 | 5 | 14 | 5 | 16 | 4&11 | 8 |
| PERK inh | 1.5 | / | 0.6 | -0.7 | 0.8 | -0.7 | -0.3 | -1.1 |
| Hck Nef HTS | 0 | / | 1 | 0 | 2 | 0 | 1 | 2 |
| RBBP9 inh | 2 | / | -4 | -2 | -7 | -5 | -2 | -5 |
| L929 necroptosis | 0.0 | / | 1.0 | -0.3 | 0.7 | -0.1 | -0.2 | 1.5 |
| TNF death inh | -3.0 | / | -0.5 | -1.1 | 1.2 | 0.1 | -0.8 | 8.5 |
| EP2 modulator | 41 | 5 | 8 | -2 | 33 | 18 | -8&2 | 4 |

Whole records, quoted from the list. Values in the order: EP2 antag, PERK inh, Hck Nef HTS, RBBP9 inh, L929 necroptosis, TNF death inh, EP2 modulator
C(=NC12CN3CN(CN(C3)C1)C2)c1cccnc1 is listed with 5, 0.6, 1, -4, 1.0, -0.5, 8
CCOC(=O)c1c(NC(=O)c2c(N)n(CCCOC)c3nc4ccccc4nc23)sc2c1CCCC2 is listed with 16, -0.7, 0, -5, -0.1, 0.1, 18
CC(C)(C)c1ccc(S(=O)(=O)N2CC3CC(C2)c2cccc(=O)n2C3)cc1 (configuration not stated) is listed with 4&11, -0.3, 1, -2, -0.2, -0.8, -8&2
O=[N+]([O-])c1ccc(C2[C@H]3C(c4ccccc4)=NC4(CCCCC4)N23)cc1 (some centres not stated) is listed with 5, 0.8, 2, -7, 0.7, 1.2, 33

Among those listed so far, 2 have a halogen:
[1] O=C(Nc1ccc(Cl)cc1C(=O)c1ccccc1Cl)c1ccco1
[8] CC(NCc1ccc(Cl)cc1)C(O)c1ccccc1 (configuration not stated)

| Assay by compound | 1 | 8 |
| --- | --- | --- |
| EP2 antag | 8 | 8 |
| PERK inh | 1.5 | -1.1 |
| Hck Nef HTS | 0 | 2 |
| RBBP9 inh | 2 | -5 |
| L929 necroptosis | 0.0 | 1.5 |
| TNF death inh | -3.0 | 8.5 |
| EP2 modulator | 41 | 4 |

Screening results (PubChem)
